Screens deposited in PubChem by several laboratories.
HSV augment: increases HSV replication in cells; HSV replication augmentation in cells, fold increase; maximum fold increase; actives 0.005% (n = 220,000);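 active means peak rise of 1.5-fold or more in the series; tested in PC3 cells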;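 further: first round at 10 µM; read as green reporter fluorescence; hits show the peak of a series up to 25 µM; 1 = signal of infected wells without compound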
INS promoter inh: TRM-6 insulin promoter activity inhibition. TRM-6 cells (human fetal islet line), insulin promoter-eGFP reporter, imaging; reporter expression induced with tamoxifen. inhibition, % at 2 µM. actives 0.9% (n = 130,000). AID 1273;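 active means inhibition above the mean plus 3 SD, with well images judged a real hit on visual review, cut at about 60% in these data, passing the limit was not always enough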
PKD1 inh: blocks activity of human protein kinase D1; Q15139; PKD1 kinase fluorescence polarization assay; inhibition, %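 (about 10 µM by stock and volumes)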; actives 0.056% (n = 200,000); AID 797;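 active means inhibition of 50% or more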;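 further: controls were vehicle for no effect and a reference inhibitor for full effect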
Target sequence (Q15139 whole entry, looked up): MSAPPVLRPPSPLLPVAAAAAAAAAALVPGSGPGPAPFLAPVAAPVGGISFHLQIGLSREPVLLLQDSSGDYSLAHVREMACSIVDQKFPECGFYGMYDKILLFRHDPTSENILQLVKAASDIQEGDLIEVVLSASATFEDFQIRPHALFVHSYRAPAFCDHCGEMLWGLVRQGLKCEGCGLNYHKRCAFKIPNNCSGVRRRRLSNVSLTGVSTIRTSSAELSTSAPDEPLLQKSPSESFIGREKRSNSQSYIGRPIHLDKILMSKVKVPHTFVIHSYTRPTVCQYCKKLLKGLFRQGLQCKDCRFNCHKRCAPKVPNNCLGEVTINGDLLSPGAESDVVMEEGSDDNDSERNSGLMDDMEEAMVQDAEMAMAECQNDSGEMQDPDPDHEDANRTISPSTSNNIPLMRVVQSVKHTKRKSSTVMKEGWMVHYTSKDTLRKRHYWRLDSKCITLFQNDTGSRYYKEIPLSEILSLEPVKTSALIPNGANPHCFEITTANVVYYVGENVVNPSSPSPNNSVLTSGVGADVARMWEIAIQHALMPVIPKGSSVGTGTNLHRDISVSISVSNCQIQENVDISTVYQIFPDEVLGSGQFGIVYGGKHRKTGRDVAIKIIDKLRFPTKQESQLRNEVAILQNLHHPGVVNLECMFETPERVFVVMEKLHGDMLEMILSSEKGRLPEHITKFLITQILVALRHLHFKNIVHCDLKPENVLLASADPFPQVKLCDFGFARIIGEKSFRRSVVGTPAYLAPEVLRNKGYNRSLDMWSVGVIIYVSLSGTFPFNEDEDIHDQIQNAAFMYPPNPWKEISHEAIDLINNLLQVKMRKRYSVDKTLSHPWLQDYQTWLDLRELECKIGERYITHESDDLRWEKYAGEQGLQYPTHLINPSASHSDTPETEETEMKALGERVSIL
RGS16-Gao HTS: RGS16-Galphao interaction regulator (human). binding response (% of control), % at 10 µM. O15492+P09471. bead-based flow cytometry RGS16-Galphao binding, fluorescence; actives lie on both sides. actives 0.38% (n = 220,000). AID 1441;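 active means below 25% or above 175%, edge rows of some plates excepted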;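 further: Galphao activated by GDP with aluminum fluoride before binding; 100% = wells without compound and 0% = beads without RGS; some results beyond the cut were filed as inactive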
GALR2 ag: agonists of human galanin receptor 2 (GALR2); O43603; GALR2-expressing cells, agonist activation read-out; activation, %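 (tested at 5 µM)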; actives 0.48% (n = 140,000); AID 803;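 active means above mean plus 3 SD of all compounds, about 5% in these data, not always enough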;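 further: 0% = vehicle buffer wells and 100% = reference agonist at full effect; tested in CHO reporter cells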
INS promoter inh cell count: second read-out of INS promoter inh, no call of its own (marks repeat the call); normalized cell count, %; measured here: cell count, toxicity; reference of the scale not given here;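 cells exposed to compound for 48 h; stained nuclei by imaging scaled within each plate; lower means fewer cells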
HSV augment primary fold: further read-out of HSV augment, marked with its call; fold increase; compound at 10 µM; measured here: primary screen fold increase 10 uM; tested in PC3 cells;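 GFP signal in the first replicate; 1 = infected wells without compound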
An asterisk follows results filed as active; i = inactive; · = no result given.

item	canonical_smiles	HSV augment	RGS16-Gao HTS	INS promoter inh	PKD1 inh
1	O=C(c1ccc(Br)cc1)c1cc([N+](=O)[O-])ccc1N1CCOCC1	i	100	·	-5
2	CC(=O)Nc1ccccc1-c1nnc(SCc2ccccc2Cl)[nH]c1=O	i	108	21	-2
3	O=C(CC1C(=O)NC2CCCCC2N1C(=O)c1ccc([N+](=O)[O-])cc1)Nc1ccccc1 (stereo unspecified)	i	98	-53	-6
4	Cc1c(OCc2ccccc2)c(=O)ccn1Cc1ccc(F)cc1	i	107	-2	-6
5	O=C(Nc1cc(Cl)ccc1Cl)C1CC(=O)N(c2ccc(Br)cc2)C1 (stereo unspecified)	i	78	-22	6
6	CC1(C)OC(=CC=Nc2ccc(Cl)cc2)OC1(C)C	i	112	·	·
7	O=S(=O)(Nc1ccc(N2CCOCC2)cc1)c1cccs1	i	94	23	-4
8	COc1ccc(Oc2c(O)c3ccccc3n(C)c2=O)cc1	i	-92	0	-1
9	C=CCC1(/C=N/O)CCOC(C)(C)C1 (stereo unspecified)	i	96	·	·
10	CCO[C@H]1OC(C(=O)O)=C[C@@H](c2csc3ccccc23)[C@@H]1CCCO	i	93	·	-5

item	HSV augment primary fold	GALR2 ag	INS promoter inh cell count
1	0.67	·	·
2	0.85	-0.5	71
3	1.2	·	86
4	0.98	·	131
5	0.86	-2.7	114
6	1	·	·
7	0.97	-0.3	83
8	1	-1.3	99
9	0.98	·	·
10	0.78	·	·

Remaining list, next part:
item	canonical_smiles	HSV augment	RGS16-Gao HTS	INS promoter inh	PKD1 inh
11	O=C(NCCC1=CCCCC1)c1ccc(Cl)cc1	i	105	·	-2
12	O=C(COc1ccc(Cl)cc1Br)NC(=O)NCc1ccccc1	i	104	-92	2
13	N#CC(c1ccc(Cl)cc1)c1ncc(C(F)(F)F)cc1Cl (stereo unspecified)	i	117	-80	6
14	CCN1N=C(c2ccccc2)Cn2c1nc1ccccc12	i	108	53	3
15	Cn1cc(CNC(=O)CC2C(=O)NCCN2CC(C)(C)C)cn1 (stereo unspecified)	i	107	·	-1
16	COc1ccc(-c2csc(NC(=O)CN3C(=O)CCC3=O)n2)cc1	i	108	-11	-6
17	CC(C)c1ccc(S(=O)(=O)N2CCN(C(C)C(=O)Nc3ccccc3-c3ccccc3)CC2)cc1 (stereo unspecified)	i	88	-8	0
18	CS(=O)(=O)N(CC(=O)Nc1ccc2c(c1)OCCO2)c1ccc2c(c1)OCO2	i	106	39	-5
19	CCCCOc1ncnc2c1[nH]c1ccc(OC)cc12	i	101	24	-7
20	COc1cc(C(C(=O)NC2CCCC2)N(C(=O)Cc2cccs2)C2CC2)cc(OC)c1OC (stereo unspecified)	i	102	·	-3

item	HSV augment primary fold	GALR2 ag	INS promoter inh cell count
11	1	·	·
12	0.98	2.8	82
13	1	-2.2	69
14	1	-1.6	37
15	0.98	·	·
16	0.98	·	90
17	1.1	0.0	84
18	0.86	-1.5	95
19	0.91	-2.4	74
20	1.1	·	·

(list continues)
item	canonical_smiles	HSV augment	RGS16-Gao HTS	INS promoter inh	PKD1 inh
21	CCn1nc(C)cc1C(=O)N1CCCC(C(=O)c2cccc(OC)c2)C1 (stereo unspecified)	i	93	·	2
22	CCNc1c([N+](=O)[O-])c(=O)n(CC)c2ccccc12	i	87	·	·
23	N#Cc1c(NCCO)nc(NCc2ccccc2)c2c1CCN(Cc1ccccc1)C2	i	101	·	-8
24	CC1(C)Cn2c(nc(=O)c3c2NCN(CCc2ccccc2)C3)S1	i	99	·	-4
25	Cn1c(NC(=O)CC2CCCCC2)cc(=O)n(C)c1=O	i	98	·	·
26	Brc1ccccc1CN1CCC(N2CCCCC2)CC1	i	103	45	-12
27	Cc1ccc(-c2cc(C(=O)NCCCn3ccnc3)c3cc(Br)ccc3n2)o1	i	134	30	-10
28	N#CC(c1ccccc1)c1cccc(Cl)n1 (stereo unspecified)	i	95	·	-4
29	CCOc1ccc(S(=O)(=O)N/N=C(\C)c2ccc(Cl)c(Cl)c2Cl)cc1	i	103	11	-12
30	CC(C)N1CCN(Cc2cccn2-c2cccnc2)CC1CCO (stereo unspecified)	i	100	·	8

item	HSV augment primary fold	GALR2 ag	INS promoter inh cell count
21	0.92	·	·
22	0.89	·	·
23	1.3	-1.3	·
24	1	·	·
25	0.89	·	·
26	0.97	0.2	98
27	1.1	-1.6	97
28	0.81	·	·
29	1.1	-0.5	153
30	0.97	·	·

Other results:
item	canonical_smiles	HSV augment	RGS16-Gao HTS	INS promoter inh	PKD1 inh
31	CC(=O)Nc1ccc(S(=O)(=O)NNC(=O)c2cc3c4ccccc4n(C)c3s2)cc1	i	103	·	-8
32	Cc1cc(C)n2nc(C(=O)Nc3cccnc3)nc2n1	i	109	-31	4
33	COc1cc(C(=S)N2CCN(c3ccccc3Cl)CC2)cc(O)c1O	i	97	·	-4
34	Cc1cnc(NC(=O)CSc2nnc(-c3cccs3)n2C)s1	i	92	-14	4
35	COc1ccc(-c2cnnc(N/N=C/c3ccc(C)o3)n2)cc1	i	100	33	11
36	Cc1ccc(C(=O)N2CCN(c3ccccc3)CC2)cc1C	i	100	·	-5
37	CCOCc1nnc(NC(=O)c2cc(OC)c(OC)cc2[N+](=O)[O-])s1	i	101	10	3
38	COc1ccc(C/C(C)=N/NS(=O)(=O)c2ccc(Br)cc2)cc1	i	99	·	9
39	Cc1cccc(C)c1NC(=O)CSC(=S)N1CCCC1	i	103	·	3
40	Cc1cc(C)c(C#N)c(=N)o1	·	58	·	0

item	HSV augment primary fold	GALR2 ag	INS promoter inh cell count
31	0.75	-1.5	·
32	0.83	-1.4	89
33	0.8	·	·
34	0.81	-2.3	97
35	0.9	·	158
36	0.93	-1.3	·
37	0.96	·	109
38	1.2	·	·
39	1	·	·
40	·	-1.2	·

Additional structures
item	canonical_smiles	HSV augment	RGS16-Gao HTS	INS promoter inh	PKD1 inh
41	Cc1cccc(CN2CCCC(C(=O)N3CCc4ccccc4C3)C2)c1 (stereo unspecified)	i	102	-16	2
42	COC(=O)CCSCC(=O)Nc1ccc(C)c(S(=O)(=O)N2CCCCC2)c1	i	99	·	·
43	CCOC(=O)N1CCC(N2CCN(S(=O)(=O)c3ccc(C)cc3)CC2)CC1	i	102	67*	4
44	Cc1ccc2nc(Cl)c3nnnn3c2c1	i	100	-147	0
45	COc1ccc(NC2=C(C(C)=O)C(c3ccc(OC)c(OC)c3)C(C(C)=O)C(C)(O)C2)cc1 (stereo unspecified)	i	90	-348	2
46	Cn1c(=O)c2[nH]c(CN3CCN(Cc4ccccc4)CC3)nc2n(C)c1=O	i	104	-21	-7
47	CCNC(=O)C1CCCc2c1[nH]c1ccc(Cl)cc21 (stereo unspecified)	i	97	0	5
48	Cc1ccc(C)c(S(=O)(=O)N2CCN(C(C(=O)Nc3ccc(F)cc3)c3ccccc3)CC2)c1 (stereo unspecified)	i	98	2	-1
49	CN(C)c1ccc(N=Nc2nc3ccccc3n2C)cc1	i	98	·	·
50	COc1ccc(C(=O)NCC(=O)N=Nc2c(O)n(Cc3ccccc3)c3ccccc23)cc1OC	i	104	·	-12

item	HSV augment primary fold	GALR2 ag	INS promoter inh cell count
41	0.91	0.3	79
42	1	·	·
43	0.91	-0.6	62*
44	0.89	·	27
45	0.83	-1.4	26
46	1	-0.2	97
47	0.88	·	151
48	1	-0.9	112
49	0.58	·	·
50	0.88	0.1	·

Later entries:
item	canonical_smiles	HSV augment	RGS16-Gao HTS	INS promoter inh	PKD1 inh
51	Cc1ccc(O)c(N=NC2=C(O)CC(C)(C)CC2=O)c1	i	58	-12	2
52	COc1ccc(Nc2nc3ccccc3nc2NS(=O)(=O)c2ccc(NC(C)=O)cc2)cc1	i	94	·	·
53	Cc1nc2cnccc2n1C	i	102	·	-5
54	CCOC(=O)Nc1oc2ccccc2c(=O)c1CN1CCOCC1	i	102	·	-4
55	O=c1[nH]c(SCc2cccc(Cl)c2)nc2c1CCCC2	i	99	·	-2
56	Cc1cc(NC(=O)c2ccccc2NS(=O)(=O)c2c(C)c(C)cc(C)c2C)no1	·	101	-4	-10
57	Cc1sc(NC(=O)C2C3CCC(O3)C2C(=O)O)nc1-c1ccc(CC(C)C)cc1 (stereo unspecified)	i	76	-6	0
58	Cc1ccc(N/C(C(Cl)=C(Cl)Cl)=C(/Cl)[N+](=O)[O-])c(C)c1	i	101	8	10
59	CC(C)C(=O)Nc1cccc(-c2cn3ccccc3n2)c1	i	143	21	-5
60	CN1C(=S)SC(C)(C)C1/[N+]([O-])=C/c1cccnc1 (stereo unspecified)	i	99	63	-13

item	HSV augment primary fold	GALR2 ag	INS promoter inh cell count
51	0.67	-0.3	111
52	1.1	·	·
53	0.98	·	·
54	0.91	-2.0	·
55	0.84	-3.3	·
56	·	-2.3	106
57	0.89	0.3	70
58	0.95	-2.0	120
59	0.9	-0.9	84
60	0.87	0.1	75

Continuation.
item	canonical_smiles	HSV augment	RGS16-Gao HTS	INS promoter inh	PKD1 inh
61	CC(Oc1ccc(Cl)cc1)c1ccc(C#N)c(=O)[nH]1 (stereo unspecified)	i	103	-53	-9
62	CCOC(=O)N1CCN(C(=O)Cc2cccs2)CC1	i	98	-7	1
63	COC(=O)c1cc(OC)c(OC)cc1NC(=O)CC1CCCCC1	i	68	-54	-10
64	Cc1cccc(NS(=O)(=O)c2cccs2)c1	i	102	-26	10
65	N#Cc1c(-c2cccnc2)c2c([nH]c1=S)CCCC2	i	101	·	-5
66	O=c1[nH][nH]c(-c2ccccc2)c1C=Nc1ccccc1Cl	i	103	-46	0
67	O=C(NCCNc1ccc2ccccc2c1)c1cccn2c(=O)c3sccc3nc12	i	101	·	-3
68	CCc1nnc(NC(=O)c2cc(S(=O)(=O)N(CC)CC)ccc2Cl)s1	i	57	23	-1
69	CS(=O)(=O)N(CC(=O)NCc1cccnc1)C1CCCCC1	i	88	·	-1
70	O=C(O)CC1(CC(=O)Nc2ccc(Oc3cccc(C(F)(F)F)c3)nc2)CCCC1	i	96	·	·
71	O=C1c2cccnc2C(=O)N1c1ccccc1-c1ccccc1	i	99	·	0
72	COc1ccc(OCC(=O)N/N=C2/C=C(C)CC2)cc1	i	100	·	-2

item	HSV augment primary fold	GALR2 ag	INS promoter inh cell count
61	0.88	·	113
62	1	-0.3	134
63	0.74	-1.1	183
64	1.3	-3.0	83
65	0.91	-0.4	·
66	0.91	-3.6	82
67	0.89	·	·
68	0.92	-2.2	91
69	1.1	·	·
70	1.2	·	·
71	0.97	0.1	·
72	0.63	·	·
